# PV pol inh: inhibitors of poliovirus RNA polymerase binding and polymerization | poliovirus polymerase elongation, fluorescence polarization; active compounds read low | P03300 | 150,000 tested, 0.66% active | % elongation, % (compound at 16.7 µg/mL) | AID 588519; in the data active = % elongation below about 90%; note: some results filed as inactive read as strong as hits
# Target sequence (P03300 1749-2209 limits assumed): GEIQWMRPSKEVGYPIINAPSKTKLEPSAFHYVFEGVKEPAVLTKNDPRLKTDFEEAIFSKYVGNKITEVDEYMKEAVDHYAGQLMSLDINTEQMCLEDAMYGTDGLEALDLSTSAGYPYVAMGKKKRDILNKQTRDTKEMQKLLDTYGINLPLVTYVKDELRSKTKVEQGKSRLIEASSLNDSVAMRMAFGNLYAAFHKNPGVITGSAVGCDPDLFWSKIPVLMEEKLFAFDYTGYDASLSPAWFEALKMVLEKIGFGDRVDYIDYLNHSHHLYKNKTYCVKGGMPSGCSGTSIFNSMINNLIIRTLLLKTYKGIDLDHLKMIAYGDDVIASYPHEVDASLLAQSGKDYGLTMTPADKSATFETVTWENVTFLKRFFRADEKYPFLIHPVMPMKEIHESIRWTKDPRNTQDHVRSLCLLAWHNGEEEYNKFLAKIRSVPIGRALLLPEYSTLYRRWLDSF
# PV pol inh intensity: recorded beside PV pol inh, whose call it bears; % elongation; measured here: total intensity read-out; formula for this scale not given here;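 total fluorescence in place of polarization; lower means less elongation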
# * hit, by the source's call.
no.	SMILES	PV pol inh intensity	PV pol inh
1	CCOc1ccc(C(=O)Nc2ccc3c(c2)OCCO3)cc1Br	108	104
2	CCOC(=O)c1sc(NC(=O)c2cc(-c3ccc(F)cc3)on2)c(C(=O)OCC)c1C	110	108
3	CC(C)c1ccc(Nc2c(-c3ccccn3)nc3ccccn23)cc1	112	108
4	CCOCCCNC(=O)C(c1ccccc1)N(Cc1ccc2c(c1)OCO2)C(=O)c1ccc(NC(C)=O)cc1 (stereo not given)	103	104
5	Cc1ccc(-n2ncc(C(=O)NCCCN3CCCCC3)c2C2CCN(C(=O)OC(C)(C)C)CC2)cc1	104	101
6	NS(=O)(=O)c1ccc(CCNC(=O)c2ccc3nc(Cc4ccccc4)oc3c2)cc1	116	111
7	Cc1ccc(N(C)C(=O)CC(C)S(=O)(=O)c2ccc3c(c2)NC(=O)CO3)cc1 (stereo not given)	93	99
8	Cc1cccc(NC(=O)c2sc3nc4n(c(=O)c3c2C)N=C(c2ccc(F)cc2)CS4)c1C	105	97
9	CCCCCn1c(=O)c2c(nc3n2CCN3c2ccc(Br)cc2)n(C)c1=O	111	108
10	Cc1cn(C)c(CC(=O)NCc2ccc(Cl)cc2)c1C(=O)O	111	105
11	CC(C)Cc1nn2c(=O)cc(COC(=O)c3ccc(NC(=O)CCc4ccccc4)cc3)nc2s1	110	104
12	CCN(CC)S(=O)(=O)c1ccc(OC)c(-n2cnnn2)c1	109	108
13	COc1cccc(-c2nc(CS(=O)(=O)CC(=O)Nc3cccc(C(C)=O)c3)c(C)o2)c1	104	105
14	COc1ccc(-c2nnc(SCC(=O)Nc3ccc(C(C)C)cc3)nc2-c2ccc(OC)c(OC)c2)cc1OC	101	109
15	CCN(CC)C(=O)c1cc(-c2ccc(Cl)cc2)on1	110	108
16	COc1ccc(-c2[nH]ncc2C(=O)NCc2ccccc2OC)cc1	113	110
17	CC1=C(c2ccc(C(C)C)cc2)S(=O)(=O)N=C1N1CCC(C(=O)NCCc2ccco2)CC1	97	103
18	COc1ccccc1C(=O)NCc1nnnn1-c1ccc(C)c(C)c1	108	99
19	Cc1ccc(-n2nc(C)c3c(C(=O)NCc4ccccc4)cc(C4CC4)nc32)cc1	103	98
20	Cc1ccc(CN2CCSc3ccc(C(=O)N4CCN(c5cccc(C)c5C)CC4)cc32)cc1	111	108
21	Cc1cc(C)c2oc(-c3cccc(NC(=O)c4ccc(-c5cccc([N+](=O)[O-])c5)o4)c3)nc2c1	109	107
22	CCCc1cc(=O)oc2cc(OCC=C(C)C)ccc12	104	100
23	COC(=O)c1ccc(CSc2nc3c([nH]c4ccccc43)c(=O)n2-c2ccc(OC)cc2)o1	105	98
24	COc1cc(OC)c(NC(=O)N2CCc3c(sc4c3CCCC4)C2c2ccccc2)cc1Cl (stereo not given)	106	100
25	O=[N+]([O-])c1cc(-c2nc(-c3ccccc3)no2)ccc1NCc1cccnc1	112	105
26	Cc1ccc(OCc2nc(-c3ccc(C(=O)N4CCN(c5ccccc5F)CC4)cc3)oc2C)cc1	111	104
27	O=C(NCC1CCN(Cc2cccc(Cl)c2)CC1)c1cc2ccc3cccnc3c2[nH]1	111	108
28	O=C(Cc1ccc(-c2ccccc2)cc1)NCCS(=O)(=O)N1CCN(c2ccccc2)CC1	103	108
29	CN(C)S(=O)(=O)c1ccc2c(c1)N(CC(=O)Nc1ccc(OC(F)(F)F)cc1)C(=O)CS2	104	103
30	Cc1cccc(C)c1NC(=O)c1nc(SC(C)C)ncc1Cl	99	103
31	COc1cc(OC)c(NC(=O)N2CCc3cc(OC)c(OC)cc3C2CC(=O)O)cc1Cl (stereo not given)	104	104
32	Cn1nc(-c2ccccc2)c(-c2ccccc2)c(C(=O)Nc2ccc(S(N)(=O)=O)cc2)c1=O	105	102
33	COc1ccccc1N1CCN(S(=O)(=O)c2ccc(-c3cnc(C4CC4)o3)cc2)CC1	108	113
34	O=C(CSC1=Nc2ccccc2N=C(c2ccc(F)cc2)C1)Nc1cccc(C(F)(F)F)c1	107	102
35	CCOC(=O)c1ccc(NC(=O)C2CCCN(c3cnccn3)C2)cc1 (stereo not given)	115	109
36	COc1cc(NC(=O)c2nnn(CC(=O)Nc3ccccc3)c2N)cc(OC)c1	115	110
37	CCc1ccc(NC(=O)C2CCN(c3cc(C)nc4c(-c5ccc(Cl)cc5)c(C)nn34)CC2)cc1	112	110
38	Cc1cc(OCC(=O)N2CCN(CCc3ccncc3)CC2)ccc1Cl	110	106
39	CCc1nn(CC(=O)NCCOC)c(=O)c2cc3cc(F)ccc3n12	113	107
40	Cc1ccc(/C=C/c2onc(C)c2S(=O)(=O)N2CCC(C(=O)Nc3ccc(C)c(N(C)C)c3)CC2)cc1	106	109

# Shown field by field: entries from further up.
37) CCc1ccc(NC(=O)C2CCN(c3cc(C)nc4c(-c5ccc(Cl)cc5)c(C)nn34)CC2)cc1
  PV pol inh intensity = 112	PV pol inh = 110

38) Cc1cc(OCC(=O)N2CCN(CCc3ccncc3)CC2)ccc1Cl
  PV pol inh intensity = 110	PV pol inh = 106

39) CCc1nn(CC(=O)NCCOC)c(=O)c2cc3cc(F)ccc3n12
  PV pol inh intensity = 113	PV pol inh = 107

40) Cc1ccc(/C=C/c2onc(C)c2S(=O)(=O)N2CCC(C(=O)Nc3ccc(C)c(N(C)C)c3)CC2)cc1
  PV pol inh intensity = 106	PV pol inh = 109

# Other entries:
no.	SMILES	PV pol inh intensity	PV pol inh
41	Cc1ccc(-c2nc(S(=O)(=O)c3ccccc3)c(N3CCN(c4ccccc4)CC3)o2)cc1	104	104
42	Cn1nnc2c(N3CCN(c4ccccc4Cl)CC3)ncnc21	113	105
43	COc1ccc(-c2[nH]ncc2C(=O)NCc2ccc(F)cc2)cc1	108	110
44	CCOC(=O)N1CCC(NC(=O)c2ccc3c(c2)N(Cc2cc(C)ccc2C)C(=O)c2ccccc2S3(=O)=O)CC1	106	106
45	Cc1ccc(-n2nc3c(=O)n(CCCC(=O)NCc4ccc(F)cc4)nc(C)c3c2C)cc1	116	110
46	O=c1oc2c(CN3CCN(CCO)CC3)c(O)ccc2cc1-c1ccccc1	105	100
47	COc1cc(NC(=O)NCCn2nnc3cc(S(=O)(=O)N(C)C)ccc32)cc(OC)c1OC	105	104
48	Cc1cccc(N2CCN(C(=O)Cn3c(=O)c4cccn4c4ccc(F)cc43)CC2C)c1 (stereo not given)	103	111
49	Cc1ccc(Cl)cc1N1CCN(S(=O)(=O)c2ccc3oc(=O)c4ncn(C)c4c3c2)CC1	105	103
50	O=C(NCCOCCn1c(=O)oc2ccccc21)Nc1ccc(Cl)cc1	112	105
51	CC(C)c1ccc(S(=O)(=O)c2cn(CC(=O)Nc3ccc(F)cc3)c3ccccc3c2=O)cc1	107	106
52	COc1ccc(CCNC(=O)CSc2nnnn2-c2cccc(C(C)=O)c2)cc1OC	106	103
53	CN(C)CCNC(=O)c1ccc(-n2c(-c3ccccc3)cc3c2CCCCC3)cc1	92	100
54	CC(C)c1ccc(NC(=O)CSC2=Nc3ccccc3C3=NC(CCC(=O)NCc4ccc(F)cc4)C(=O)N23)cc1 (stereo not given)	117	111
55	Cc1ccc(NC(=O)Cn2c(=O)n(Cc3nc(-c4ccccc4)no3)c(=O)c3cc4c(cc32)OCO4)cc1C	116	110
56	Cc1ccc(NC(=O)c2ccc(Br)cc2)c(C(=O)c2ccccc2)c1	106	102

# Some of the entries so far, with each value named:
38	Cc1cc(OCC(=O)N2CCN(CCc3ccncc3)CC2)ccc1Cl
  PV pol inh intensity = 110	PV pol inh = 106

39	CCc1nn(CC(=O)NCCOC)c(=O)c2cc3cc(F)ccc3n12
  PV pol inh intensity = 113	PV pol inh = 107

40	Cc1ccc(/C=C/c2onc(C)c2S(=O)(=O)N2CCC(C(=O)Nc3ccc(C)c(N(C)C)c3)CC2)cc1
  PV pol inh intensity = 106	PV pol inh = 109

41	Cc1ccc(-c2nc(S(=O)(=O)c3ccccc3)c(N3CCN(c4ccccc4)CC3)o2)cc1
  PV pol inh intensity = 104	PV pol inh = 104

# Next entries.
no.	SMILES	PV pol inh intensity	PV pol inh
57	Cc1cccc(OCC(=O)Nc2c(C(=O)Nc3ccc(F)cc3)oc3ccccc23)c1	107	105
58	O=C(CCSCc1cccc(F)c1)NCc1ccccc1	106	106
59	Cc1ccc(CSc2nc3ccc(NC(=O)C(C)C)cc3s2)cc1	105	102
60	CCOC(=O)c1cc(-c2ccccc2)n(CCC(=O)Nc2cc(OCC)ccc2OCC)c1C	104	104
61	COc1ccc(CSc2nc3ccncc3n2CC(=O)Nc2cc(C)cc(C)c2)cc1	106	104
62	COC(=O)c1cc(S(=O)(=O)N2CCN(c3ccc(OC)cc3)CC2)c[nH]1	101	105
63	COc1ccc(C(=O)Nc2ccc(N3CCN(c4ccccc4)CC3)c(C(=O)O)c2)cc1	107	105
64	O=C(OCc1cc(=O)n2nc(-c3cccs3)sc2n1)c1cccc(F)c1	110	109
65	Cc1cccc(NC(=O)CSc2nc3c([nH]c4ccccc43)c(=O)n2-c2cc(C)cc(C)c2)c1	110	111
66	CCn1cc(C(=O)N2CCN(c3cccc(Cl)c3)CC2)c(=O)c2cc(S(=O)(=O)N3CCCCC3)ccc21	104	102
67	COc1ccc(CCNC(=O)c2ccc3nc(Cc4ccccc4)oc3c2)cc1OC	105	111
68	CCn1cc(S(=O)(=O)c2ccccc2)c(=O)c2cc(C)ccc21	106	103
69	COc1ccccc1C(=O)Nc1cc(-c2cccc(Br)c2)nn1-c1ccccc1	96	103
70	CCOC(=O)c1cccc(NC(=O)CSc2ncc3c(n2)-c2ccc(Cl)cc2N(Cc2ccccc2)S3(=O)=O)c1	113	107
71	O=C(NCC(c1cccnc1)N1CCc2ccccc21)c1cccc(F)c1 (stereo not given)	109	113
72	CCCCN(C)C(=O)C1CCC(CNS(=O)(=O)c2ccc3c(c2)CC(C)N3C(C)=O)CC1 (stereo not given)	36*	15*
73	CCc1nn2c(=O)cc(COC(=O)C3CCCCC3)nc2s1	101	95
74	CCCCCOc1ccc(NC(=O)Cn2c(-c3cncs3)nc3ccccc32)cc1	87*	89*
75	Cc1ccc(C(=O)Nc2sc3c(c2C(=O)NCc2ccco2)CCC(C(C)(C)C)C3)cc1 (stereo not given)	111	110
76	COc1ccc(CNC(=O)c2cc3c(=O)n(Cc4ccco4)ccc3nc2C)c(OC)c1	108	100
77	CCC(C(=O)Nc1cccc(Cl)c1C)n1nc(C)c2sc3ccccc3c2c1=O (stereo not given)	115	113
78	CCOc1ccc(CCNC(=O)c2ccc(CS(=O)Cc3cccc(Cl)c3)o2)cc1 (stereo not given)	110	105
79	CCOc1ccccc1CNC(=O)c1cnc2c(-c3ccc(OCC)c(OCC)c3)c(C)nn2c1C	109	109
80	COc1ccc(NC(=O)c2sc3nc4c(cc3c2N)CCCCCC4)cc1OC	112	107
81	O=c1c2oc3ccccc3c2n(Cc2cccc(F)c2)c(=O)n1Cc1ccco1	108	107
82	O=C(Nc1ccc(F)cc1F)N1CCN(c2ccc(Cl)c(Cl)c2)CC1	113	117
83	Cc1ccc(C(=O)Nc2ccc3oc(-c4ccc(C(C)(C)C)cc4)nc3c2)cc1	113	107
84	COc1ccccc1N1CCN(c2cc(C)nc3nncn23)CC1	115	110
85	CCC1=Nc2cc(C(=O)NCCCOC)ccc2Sc2ccc(Br)cc21	111	108
86	Cc1nc2ncnn2c(C)c1CCC(=O)N1CCN(c2cccc(Cl)c2)CC1	106	109
87	CCCN(CCC)CCNC(=O)Cn1cnc2sc(C)c(S(=O)(=O)N3CCC(C)CC3)c2c1=O	94	102
88	CCN(CCCNC(=O)c1cc2c(=O)n(C)c3ccccc3c2s1)c1ccccc1	103	105
89	CCC(=O)N1c2ccc(S(=O)(=O)N3CCN(c4ccccc4)CC3)cc2CC1C (stereo not given)	114	114
90	COC(=O)c1ccccc1NC(=O)c1nc(-c2ccc(Cl)cc2)n2c1CCCCC2	95	103
91	COc1ccc2c(c1)CC(C(=O)NCc1ccc(F)cc1)CO2 (stereo not given)	111	107
92	Cc1ccc2nc(N(Cc3cccnc3)C(=O)c3ccco3)sc2c1	111	103
93	Cc1ccc(C2C=C(c3ccccc3)Nc3nc(NS(=O)(=O)c4ccc(C)cc4)nn32)cc1 (stereo not given)	117	101
94	Cc1ccc(N2C(=O)c3oc4cc(C)c(C)cc4c(=O)c3C2c2cccc(O)c2)nc1 (stereo not given)	105	105
95	COc1ccc(OCC(=O)N2CCN(Cc3cc(=O)n4nc(-c5ccc(OC)cc5)sc4n3)CC2)cc1	101	106
96	COc1ccc(CCNC(=O)CCc2c(C)c3cc4c(C)c(C)oc4cc3oc2=O)cc1	107	111
97	Cc1ccc(NC(=O)C(Cc2ccccc2)N2Cc3ccccc3C2=O)cc1Cl (stereo not given)	111	111
98	COc1ccc(CC(=O)Nc2ccc3nc(N4CCCCC4)cc(C)c3c2)cc1	105	103
99	Cc1ccc(-c2cc3c(n2-c2ccc(C)cc2)CC(C)(C)CC3=O)cc1	107	104
100	COc1ccc(N2CC(NC(=O)C3CCCC3)CC2=O)cc1 (stereo not given)	111	105
101	Cc1ccccc1OCC(=O)Nc1ccc2nc(SCC(=O)N3CCOCC3)sc2c1	106	108
102	Cc1cccc(NC(c2cccc(F)c2)c2ccc3ccc(C)nc3c2O)n1 (stereo not given)	97	108
103	COc1ccc(N2CCN(C(=O)c3cn(CC(C)C)c(=O)c4c3c3ccccc3n4C)CC2)cc1	110	105
104	COc1ccc2nc(N(Cc3cccnc3)C(=O)c3ccco3)sc2c1	113	109
105	Cc1c(Cl)cccc1NC(=O)CN1C(=O)CSc2ccc(S(=O)(=O)N3CCCC3)cc21	105	110
106	COc1ccc(Cl)cc1NC(=O)c1noc2c1CCc1ccccc1-2	108	106
107	Cc1ccc2occ(CC(=O)Nc3ccc(Cl)c(C(F)(F)F)c3)c2c1	114	117
108	COCCNC(=O)CCCn1c(SCC(=O)c2ccc(F)cc2)nc2c(sc3ccccc32)c1=O	110	104
109	COC(=O)c1c(NC(=O)c2cccc(OC)c2)sc2c1CCC(C(C)(C)C)C2 (stereo not given)	103	100

# Source: PubChem BioAssay (ICCB-Longwood Screening Facility, Harvard Medical School)

# An excerpt; the hit share may differ from the screen's.
